Bioassay records (PubChem)
NPYLR7 agonist = agonists of mosquito NPYLR7 receptor, primary screen, cell-based, Aedes aegypti, calcium fluorescence, mosquito biting behavior; Aedes aegypti neuropeptide Y-like receptor 7 (NPYLR7); HEK293T NPYLR7/Galpha15, GCaMP6s calcium fluorescence; activation, % at 10 µM; 0.15% of 270,000 active; AID 1259423, 2018; in the data active = activation above about 40%;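 note: 0% = vehicle and 100% = reference agonist at the receptor; some compounds past the cut are filed as inactive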
NPYLR7 agonist max-min = also measured in NPYLR7 agonist; calls as there; activation, %; measured here: Max-Min RFU normalised activation; some inactives read as strong as hits;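 span of the calcium signal over five minutes; 0% = vehicle and 100% = native peptide agonist; compound fluorescence can raise it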
Numbers without * were called inactive.

SMILES	NPYLR7 agonist	NPYLR7 agonist max-min
COCCn1c(=S)[nH]c2c1c(=O)[nH]c(=O)n2C	1	4
COCCOCC(=O)N1CCN(c2nccc(-c3ccco3)n2)CC1	29	42
Cn1c(-c2cccs2)nn(CCNC(=O)c2ccccc2F)c1=O	3	0
CCN(CC1CCCCC1)C(=O)CS(C)(=O)=O	9	1
Cc1cccc(C)c1N1C[C@@H](COCc2ccccc2)[C@H](Cc2ccccc2)S1(=O)=O	31	31
CC1(C)Oc2ccc3ccc(=O)oc3c2/C(=C/NCCC2C=NC3C=CC=CC23)C1=O (stereo not given)	-2	-4
Cc1ccc2ncc(C(=O)O)n2c1	8	6
O=c1[nH]c(CSc2nnc(Cc3cccs3)n2C2CC2)nc2ccsc12	4	5
C=CCn1cc(CNC(CC)c2cnn(C)c2)c(C)n1 (stereo not given)	-5	-10
Cc1ccc2c(c1)oc(=O)n2C1CCN(C(=O)c2cc(Cl)cnc2Cl)CC1	6	2
N=C1/C(=C/c2ccccc2)C(=O)N=C2SC(Cc3ccccc3)=NN12	-1	-1
Cc1nnc(C)c2c(C)n(-c3ccc(C#N)cc3)nc12	0	-3
Cc1cc(S(=O)(=O)Nc2ccc3c(c2)OC(F)(F)O3)sc1C(=O)O	7	1
COCCN(CC(=O)N(CCc1c[nH]c2ccccc12)Cc1ccccc1OC)C(=O)Nc1cccc(OC)c1	0	8
Oc1ccc(-c2ccc(-c3nc(Cc4ccccc4)no3)cn2)cc1	13	2
Cc1nc(CN(C)C(=O)C2CCCN(c3ccccn3)C2)no1 (stereo not given)	5	5
Cc1cccc(CCC(=O)OC(C)C(N)=O)c1 (stereo not given)	1	-3
O=C1CSC(c2ccncc2)N1c1ccc(Cl)cn1 (stereo not given)	-5	-11
NC(c1csc(Nc2cc(Oc3ccccc3)ncn2)n1)c1ccccc1Cl (stereo not given)	-4	-9
NC1=NC(=O)/C(=C/c2cccn2-c2ccc([N+](=O)[O-])cc2)S1	-1	-2
COc1ccc(OC)c(-n2c(C)cn3c4c(=O)n(C)c(=O)n(C)c4nc23)c1	11	2
Cc1ccc(C(=O)Cn2nc(-c3ccc(F)cc3)oc2=O)c(C)c1	-6	-10
CN(C)c1ccc(/C=N\NC(=O)CSc2nnc(-c3ccc(Cl)cc3)n2-c2ccccc2)cc1	-4	-7
C=CCN(CC=C)C(=O)CN1CCCN(C(=O)C2CCCO2)CC1 (stereo not given)	9	-2
CCOC(=O)/C=c1/nc2c([nH]c1=O)=NON2	-12	-19
O=C(c1ccccc1F)N1CCCC(OCc2ccc(F)cc2F)C1 (stereo not given)	-6	-3
CCOC(=O)c1ccc2nc(C(=O)NCC(C)N(C)C)n(Cc3ccc(-c4ccccc4)cc3)c2c1 (stereo not given)	-4	-8
O=C1C[C@H]2CC[C@@H](CN1)N2C(=O)CCc1ccc2c(c1)OCO2	1	-1
CCCn1c(SCCn2cc(Br)cn2)n[nH]c1=O	7	4
COc1ccccc1C1CC(c2ccc(F)cc2)=NN1C(=O)CN1CCCCC1 (stereo not given)	9	8
COc1ccc(-c2cnc3c(NC=O)cc(-c4ccc(N(C)C)cc4)cn23)cc1OC	8	1
CCNC(=O)N1CCN(C(=O)c2nn(-c3ccc(C)cc3F)c3c2CCC3)CC1	3	41
C=CCn1c(=O)c2c(nc3n(CC(=O)OCC)c(C)c(C)n23)n(C)c1=O	3	3
COc1cccc(-n2cc(CNCc3nnc(-c4ccc(C)n4C)o3)cn2)c1	2	-1
NC(=O)c1ccccc1-c1cccc(CN2CCOCC2)c1	-4	4
CN(CC1COCCO1)C(=O)c1cc(COc2ccc3ncccc3c2)on1 (stereo not given)	6	9
Cn1nc(C2CCN(C(=O)C3C=CCN3)CC2)n(Cc2ccccc2)c1=O (stereo not given)	12	9
Cc1nc(C)c(CNC(=O)c2ccc(NC(=O)c3ccoc3C)cc2)s1	-16	-15
COc1ccc(CC(N)c2csc(Nc3ccccn3)n2)cc1 (stereo not given)	-3	-9
Cc1ccc(-n2cc(CNCCc3ccccn3)c(-c3cccc(C)c3)n2)cc1	10	6
O=C(CN1CCc2sccc2C1c1ccccc1)N1CCN(C(=O)C2CCCCC2)CC1 (stereo not given)	2	1
CCCCCc1ccc(C(=O)N(CCOC)CC(=O)N2CCc3sccc3C2c2ccc(Cl)cc2Cl)cc1 (stereo not given)	-3	-2
O=C(c1ccc(Cl)cc1)N1CCSC1c1ccc(F)cc1F (stereo not given)	-5	2
COc1cc(OC)cc(C(=O)Nn2cnc3c(cnn3-c3ccc(C)cc3)c2=O)c1	3	0
CCN(CC)S(=O)(=O)c1ccc(SCC(=O)N2CCNC2=O)nc1	-4	-5
COc1ccccc1Sc1ccccc1C#N	-3	-4
COC(=O)c1cccc(-c2cccc(CN3CCOCC3)c2)c1	-2	1
O=C(CC12CC3CC(CC(O)(C3)C1)C2)N1CCN(c2ccc(F)cc2)CC1	-7	-3
O=C(CN1CCCCCC1)N1CCCCC1c1cccnc1 (stereo not given)	-14	-12
CCOC(=O)c1ccc2c(c1)nc(SCc1c(F)ccc(C)c1F)n2Cc1ccccn1	5	1
CCCn1c(=O)n(C)c(=O)c2c3nc4ccccc4c(C)c3[nH]c21	5	1
CC1C(=O)N(c2ccc(F)cc2)CCN1C(=O)c1ccc2c(c1)OCO2 (stereo not given)	0	1
CCc1cc(C(C)n2cc(-c3cccc(OC)c3OC)nn2)on1 (stereo not given)	0	-2
Cc1cc(C(=O)N2CCN(CC(OCc3c(F)cccc3F)c3ccc(Cl)cc3)CC2)cc(Cl)n1 (stereo not given)	2	1
CCOC(=O)CNC(=O)CSc1ncnc2c1nnn2Cc1ccc(F)cc1	16	18
Cc1noc(-c2ccc3c(c2)OCO3)c1C(=O)NCCSCc1ccco1	0	12
CCN(CC)c1ncccc1CNC(=O)Nc1cccc(OC)c1	5	0
CCc1nc2c([nH]1)c(=O)n(C)c(=O)n2C	5	3
CN(C)c1ncc(CNC2CC(=O)N(CCc3cccc(Cl)c3)C2)s1 (stereo not given)	26	8
CC1CN(C(=O)CN2CCc3sccc3C2c2cccc(F)c2)CCN1C(=O)c1ccc(Cl)c(Cl)c1 (stereo not given)	24	18

Single records, as listed above. Order of screens: NPYLR7 agonist | NPYLR7 agonist max-min
`CCOC(=O)c1ccc2c(c1)nc(SCc1c(F)ccc(C)c1F)n2Cc1ccccn1` across the screens: 5 | 1
`O=C(CC12CC3CC(CC(O)(C3)C1)C2)N1CCN(c2ccc(F)cc2)CC1` across the screens: -7 | -3

Additional entries follow.
SMILES	NPYLR7 agonist	NPYLR7 agonist max-min
Cc1[nH]n(-c2ccccc2)c(=O)c1C1=C(N2CCCCC2)C(=O)N(c2ccc3c(c2)OCO3)C1=O	8	15
CC(C)Sc1nc(-c2ccccc2Cl)nc2c1c(=O)n(C)c(=O)n2C	-3	-6
COc1ccc(-c2c(C)nn3c2ncc2c(=O)n(-c4ncn[nH]4)ccc23)cc1	3	7
CCOCCCN(Cc1nc(C(=O)OC)cs1)C(=O)C(Cl)c1ccccc1 (stereo not given)	18	26
COc1ccc(-c2ccc(C(=O)N3CCCC3)o2)c2cccnc12	4	3
N#Cc1ccc(C(=O)N2CC3ON=C(c4cccnc4)C3C2)cc1 (stereo not given)	0	0
Cc1ccc(C)c(C(=O)CCC(=O)N2CCC(C(=O)c3ccc(O)cc3)CC2)c1	5	1
O=S(=O)(Nc1ncnc2sc3c(c12)CCC3)c1cc(F)ccc1F	0	-3
CCOc1ccccc1CNC1CC(=O)N(Cc2cccc(F)c2)C1 (stereo not given)	15	5
O=S(=O)(NCc1ccccc1)N1CCCCC1c1nc2ccccc2[nH]1 (stereo not given)	4	2
O=C(CN1CCCCCCC1=O)NCc1ccc(-c2ccccc2)o1	4	0
Cc1ccc(C(O)c2ncc(-c3ccccc3C)[nH]2)cc1 (stereo not given)	0	-1
COc1ccc2nc(NC(=O)CCN3C(=O)C4CCCCC4C3=O)sc2c1 (stereo not given)	9	6
Cc1ccc(C)c(NC(=O)/C=C/c2ccc3c(c2)CCCN3C)c1	4	4
CCn1c(=O)c2c(nc3n2CC(C)=NN3Cc2cccc3ccccc23)n(C)c1=O	-11	-13
O=C(NCCCOc1ccccc1)C1CCN(S(=O)(=O)c2cccs2)CC1	4	10
COc1ccc(-c2nnc(SCc3ccccc3C#N)n2-c2ccc(Cl)c(Cl)c2)cc1	2	7
CCOC(=O)c1cc(-c2ccc(OC)cc2)n(C2CCN(C(=O)c3ccco3)CC2)n1	31	21
Cc1nn(-c2ccccc2)c(C)c1CNC(=O)CCCn1c(C)csc1=O	4	1
O=C(NC1CC1)c1coc(CN(Cc2cccc(C(F)(F)F)c2)Cc2cccs2)n1	3	12
CCN(CC)C(=O)Oc1ccc2c(ccn2Cc2cc(Br)cc(Br)c2)c1-c1cc(F)cc(F)c1	23	17
COCCN(CC(=O)N(CCc1c[nH]c2ccccc12)Cc1ccc(F)cc1)C(=O)COc1ccc(Cl)cc1	23	30
O=[N+]([O-])c1ccccc1I	7	4
O=C1Nc2ccccc2C12CCCN(Cc1ccc(-c3ccn[nH]3)o1)C2 (stereo not given)	2	11
CC(=O)c1cccc(S(=O)(=O)NCC(C)N2CCN(C)CC2)c1 (stereo not given)	-1	-6
CCN1CCN(S(=O)(=O)c2ccc(OC)c(N3CCN(C(=O)COc4ccccc4)CC3)c2)CC1	21	21
O=C(c1ccc(Cl)cc1F)N1CCN(S(=O)(=O)c2ccc(F)c(Cl)c2)CC1	-7	-10
O=S(=O)(c1ccccc1)N1CCN(Cc2cccc3nccnc23)CC1	4	0
C=CCn1c(SCCC(N)=O)nnc1-c1ccccc1	-5	-4
CCc1[nH]n(-c2ccc(Cl)cc2)c(=O)c1C1=C([n+]2ccc(C)cc2)C(=O)N(CC(C)C)C1=O	40	34
COc1cc(CC2(CCC(=O)N3CCN(C(=O)c4cccs4)CC3)CCC(=O)N2)ccc1F (stereo not given)	-8	-8
Cc1nc(NCCNC(=O)c2cccs2)cc(N2CCCC2)n1	1	0
COc1cc(NC(=O)c2ccccc2)c(OC)cc1NC(=O)CN(C)CC1OCCO1	-9	-16
Cc1nccn1CC(=O)N1CCC(=O)N(Cc2ccc(F)cc2)C(C(C)C)C1 (stereo not given)	-4	-6
Cc1oc(C(C)(C)C)cc1C(=O)N1CCC[C@H]1C(=O)N1CCC(C(=O)N2CCOCC2)CC1	16	17
COCCOC(C)C(=O)N1CCCc2cc(C)cc(C)c21 (stereo not given)	10	7
CC1(C)CCC(C)(C)c2cc(NC(=O)Nc3cccc4[nH]c(COCCO)nc34)ccc21	-4	14
Cc1ccc(CNS(=O)(=O)Cc2ccc(F)cc2)cc1F	0	0
COC(=O)CCCC(=O)N1CCC(Cc2ccc(C(F)(F)F)cc2)CC1	2	-8
CCc1ocnc1C(=O)N1CCOc2c(O)cc(-c3cccc(Cl)c3)cc2C1	16	5
CC(Oc1ccc(Br)cc1Cl)C(=O)NC1CCS(=O)(=O)C1 (stereo not given)	12	7
O=C(CCC(=O)N1CCCCCC1)NC[C@@H]1CCNC[C@H]1O	-5	-15
c1ccn2c(NC3CCCCC3)c(-c3ccc4c(c3)OCO4)nc2c1	-15	-3
CN1C[C@@H]2CC[C@H](CC1=O)N2C(=O)C(C)(C)NC(=O)c1cccs1	4	2
COc1ccccc1CCNC(=O)c1ccccc1N1CCC(NC(=O)c2ccccc2C)CC1	1	10
Cc1nc(-c2ccc(Cl)cc2)nc(N2CCN(C(=O)CCc3ccccc3)CC2)c1Cc1ccccc1	-4	2
O=C(Nc1nc2ccccc2s1)c1cc(-c2cccs2)n(C2CCS(=O)(=O)C2)n1 (stereo not given)	5	3
CC(Oc1ccccc1F)C(=O)N/N=C\c1cnn(-c2ccccc2)n1 (stereo not given)	1	4
CCCNC(=O)NC(=O)CSc1nnc(-c2ccco2)n1CC	-2	-1
CCOC(=O)C1=C(N2CCCCC2)c2cc3c(n2C1=O)CCCC3	-8	-9
CCCCc1nc(C)c(C(=O)OCc2scnc2C)s1	4	4
CCOC(=O)N1CCN(C(=O)CSc2ccc3nnc(-c4ccc(OC)cc4)n3n2)CC1	13	14
C=CCN1C[C@@H]2C[C@@H](C(N)=O)N(C(=O)Cc3ccc(OC)cc3)c3cccc(c32)C1=O	4	14
O=C(CSc1nn(-c2ccc(Cl)cc2)c(=S)s1)C12CC3CC(CC(C3)C1)C2	2	9
CCc1cccc(OC2CN(C(=O)CSc3nnc(C)s3)C2)c1	0	-11

Sorted by heavy-atom count (ascending): some entries from above
SMILES	NPYLR7 agonist	NPYLR7 agonist max-min
CCCCc1nc(C)c(C(=O)OCc2scnc2C)s1	4	4
COCCOC(C)C(=O)N1CCCc2cc(C)cc(C)c21 (stereo not given)	10	7
O=C(CCC(=O)N1CCCCCC1)NC[C@@H]1CCNC[C@H]1O	-5	-15
CCc1cccc(OC2CN(C(=O)CSc3nnc(C)s3)C2)c1	0	-11
CCOC(=O)C1=C(N2CCCCC2)c2cc3c(n2C1=O)CCCC3	-8	-9
c1ccn2c(NC3CCCCC3)c(-c3ccc4c(c3)OCO4)nc2c1	-15	-3
CC(Oc1ccccc1F)C(=O)N/N=C\c1cnn(-c2ccccc2)n1 (stereo not given)	1	4
O=C(CSc1nn(-c2ccc(Cl)cc2)c(=S)s1)C12CC3CC(CC(C3)C1)C2	2	9
CCc1ocnc1C(=O)N1CCOc2c(O)cc(-c3cccc(Cl)c3)cc2C1	16	5
O=C(Nc1nc2ccccc2s1)c1cc(-c2cccs2)n(C2CCS(=O)(=O)C2)n1 (stereo not given)	5	3
C=CCN1C[C@@H]2C[C@@H](C(N)=O)N(C(=O)Cc3ccc(OC)cc3)c3cccc(c32)C1=O	4	14
CCOC(=O)N1CCN(C(=O)CSc2ccc3nnc(-c4ccc(OC)cc4)n3n2)CC1	13	14
Cc1oc(C(C)(C)C)cc1C(=O)N1CCC[C@H]1C(=O)N1CCC(C(=O)N2CCOCC2)CC1	16	17
COc1ccccc1CCNC(=O)c1ccccc1N1CCC(NC(=O)c2ccccc2C)CC1	1	10
Cc1nc(-c2ccc(Cl)cc2)nc(N2CCN(C(=O)CCc3ccccc3)CC2)c1Cc1ccccc1	-4	2

This is a subset (hit frequency here may not be typical).
